# Screens deposited in PubChem BioAssay by National Center for Advancing Translational Sciences (NCATS).
# 2A firefly: lowers the firefly signal of an FMDV 2A StopGo reporter. HEK cells with a luciferase reporter of 2A StopGo recoding. Potency, µM (top dose mostly 57.5 µM), without a hit: at the top dose signal change, negative = less light. 120,000 tested, 0.23% active; active = well fitted falling curve with a large enough effect; inconclusive = small, poorly fitted or top-dose-only effect; inactive = no such curve, though single readings can be large or run the other way; further: nearly all actives have a fitted effect of over 60% in size; overnight with compound
# 2A Renilla: FMDV 2A StopGo reporter, Renilla signal; HEK cells with a luciferase reporter of 2A StopGo recoding; Potency, µM (top dose mostly 57.5 µM), without a hit: at the top dose signal change, negative = less light; 120,000 tested, 0.32% active; active means well fitted falling curve with a large enough effect; inconclusive means small, poorly fitted or top-dose-only effect; inactive means no such curve, though single readings can be large or run the other way; further: nearly all actives have a fitted effect of over 55% in size; overnight with compound
# Numbers without * were called inactive; ? = inconclusive; [ ] = another dose, or the depositor's remark. On the % scale 0 is the no-effect control and ±100 the full control effect; potency means the concentration at half of the fitted maximal effect.
SMILES,2A firefly,2A Renilla
CC(=O)n1nc(-c2cccnc2)nc1NCc1ccc(F)cc1,3%,-8%
COc1cc(NC(=O)CN2CCN(CC(=O)Nc3ccc(F)cc3)CC2)cc(OC)c1,-22%,-6%
Cc1cccc2cc(CN(C(=O)c3ccccc3)C(C)C)c(=O)[nH]c12,-11%,-11%
O=C(O)CCC(CCC(=O)O)C(=O)O,-1%,-8%
CCOC(=O)c1cc(-c2ccccc2)n(CC(=O)Nc2ccccc2OCC)c1C,-9%,-6%
CCc1cc(C(=O)NC(C)CCc2ccccc2)sc1C (stereo not drawn),4%,10%
Cc1cccc(NC(=O)CSc2nc3ccccc3c(=O)n2CCn2cc(Cl)cn2)c1C,15%,8%
NC(=O)C1CCN(C(=O)C2CCN(S(=O)(=O)Cc3c(F)cccc3Cl)CC2)CC1,11%,-4%
Cc1c(C(=O)NCc2ccc(N(C)C)cc2)oc2c1-c1nn(Cc3cccc(Cl)c3)cc1CC2,-12%,91%[activator]
O=C(/C=C/c1ccccc1)Nc1cccc(Oc2ccccc2)c1,?,-5%[1.06 µM]
Cc1ccc(Cl)cc1-n1ncc2c(N3CCC(C(N)=O)CC3)ncnc21,-15%,-26%
Cc1[nH]c2ccccc2c1SCCNC(=O)c1cccs1,6%,18%
CC[N+](CC)(CC)Cc1ccc(C#N)o1,-5%,4%
O=C(OCC#CCSc1nc2ccccc2s1)c1cccc2ccccc12,104%[activator],7%
COc1ccc(C(=O)Nc2oc3c(C)cccc3c(=O)c2-c2cc(OC)c(OC)c(OC)c2)cc1,-4%,-8%
CCC(Sc1nncn2c1cc1oc(C)cc12)C(=O)Nc1ccc(F)cc1 (stereo not drawn),0%,-1%
NC(CCCCCCC(N)C(=O)O)C(=O)O (stereo not drawn),-6%,3%
COCC(=O)Nc1nc2c(s1)C(=O)CC(C)(C)C2,6%,11%
CCCN1CCN(C(=O)c2cccc(C(F)(F)F)c2)CC1,?,12%
COc1ccc2c(CSc3nnnn3-c3ccccc3)cc(=O)oc2c1,0%,92%[activator]
COc1ccc(OC(=O)C2OC3OC(C)(C)OC3C3OC(C)(C)OC23)cc1 (stereo not drawn),5%,13%
CC(OC(=O)/C=C/c1ccc2ccccc2n1)C(=O)NC1(C#N)CCCCC1 (stereo not drawn),0%,-23%
Cn1c(=O)n(C/C=C/c2ccccc2)c(=O)c2c1nc1n2CCN1c1ccc(Cl)cc1,6%,6%
CN(CC(=O)Nc1ccccc1)C(=O)c1cc2c(s1)CCCCC2,13%,-3%
Cc1ccc(Cn2c(=O)n(-c3ccc(C)c(C)c3)c(=O)c3c(C)c(C)sc32)cc1,-6%,7%
SMILES,2A firefly,2A Renilla
C=CCn1c(C)cc(C(=O)COC(=O)c2cc(C)nc3ccccc23)c1C,-11%,?
Cc1cnc2c(S(=O)(=O)NC3CCN(S(C)(=O)=O)CC3)cccc2c1,121%[activator],2%
COC(=O)[C@H](C(C)C)N(CCc1cn(Cc2ccc(C)cc2)nn1)S(=O)(=O)c1ccc(F)cc1Br,-2%,55%[activator]
CN(C)c1cccc(C(=O)NNC(=O)c2ccccc2F)c1,40%[activator],-5%[1.06 µM]
Cc1ccc2nc(C)cc(=S)n2c1,17%,9%
FC(F)(F)c1ccc(Cl)c(N/N=C/c2ccc(OCc3ccccc3)cc2)c1,18%,-4%
O=C(NCc1ccc2c(c1)CCN2C(=O)c1ccccc1)c1ccco1,-19%,-14%
COCCCNc1nc2c(c(=O)[nH]c(=O)n2C)n1CCc1ccc(OC)cc1,5%,?
O=C(NNC(=O)C1CCCCC1)c1ccccc1Br,0%,15%
COCC(C)n1c(C)cc(C(=O)Cn2cnc3sccc3c2=O)c1C (stereo not drawn),121%[activator],15%
Cc1c(NC(=O)c2cc(-c3ccc(F)cc3)on2)c(=O)n(-c2ccccc2)n1C,-9%,-7%
CN(CC(=O)NC(=O)NCc1ccco1)c1ccccc1,-19%,2%
CC(C)=CCn1c(N2CCCCC2)nc2c1c(=O)[nH]c(=O)n2C,35%[activator],11%
Cc1cc(C)n(-c2ccc(=O)n(CC(=O)Nc3ccc(C(N)=O)cc3)n2)n1,-8%,-18%
CCN(c1ccc(-c2csc(-c3ccccc3)n2)cc1)S(C)(=O)=O,0%,8%
Cc1ccc(C2=C(O)C(=O)N(c3ccc(F)cc3)C2c2ccc(C(=O)O)cc2)cc1 (stereo not drawn),4%,17%
O=C(NC1CCCc2ccccc21)c1ccc2c(c1)sc1nc(-c3ccccc3)cn12 (stereo not drawn),60%[activator],16%
COc1ccccc1OCCC(=O)NC12CC3CC(CC(C3)C1)C2,20%,1%
O=C(O)C1CCCN(C(=O)c2ccoc2)C1 (stereo not drawn),1%,-5%
N#CCCN(C(=O)COC(=O)c1nn(-c2ccccc2)c(=O)c2ccccc12)c1ccccc1,8%,0%
COc1cc(C(=O)Oc2ccccc2C#N)cc(Br)c1OCc1ccccc1,15%,11%
CCCCNc1nc(-c2ccc3c(c2)CC(C)N3S(C)(=O)=O)cs1 (stereo not drawn),119%[activator],-5%
CN(C)C(=S)c1ccc2c(c1)OCO2,12%,-6%
CC(=O)Nc1ccc(OCCC2CCCCC2)cc1,179%[activator],12%
O=C(C1=C(O)C(=O)N(CCc2ccccc2)C1c1ccncc1)c1ccco1 (stereo not drawn),11%,-10%

# Profiles from above. Order of values: 2A firefly	2A Renilla
# CN(C)C(=S)c1ccc2c(c1)OCO2 is listed with 12%	-6%
# Cc1cc(C)n(-c2ccc(=O)n(CC(=O)Nc3ccc(C(N)=O)cc3)n2)n1 is listed with -8%	-18%
# O=C(NCc1ccc2c(c1)CCN2C(=O)c1ccccc1)c1ccco1 is listed with -19%	-14%

# The listing continues.
SMILES,2A firefly,2A Renilla
CCOc1ccccc1CNc1ncnc2onc(-c3ccc(F)cc3)c12,8%,-2%
O=C(NCc1cccc(Br)c1)C1CCN(C(=O)c2sccc2-n2cccc2)CC1,0%,0%
Cc1ccc(NC(=O)CN2C(=O)COc3ccc(S(=O)(=O)N4CCCCC4)cc32)cc1N(C)C,-13%,-1%
COc1cc(NC(=O)CCc2ncc(-c3ccc(Cl)cc3)o2)cc(OC)c1,10%,2%
CCOC(=O)c1c(NC(=O)CN2CCC(C)CC2)sc2c1CC(C)(C)OC2,-9%,-17%
Cc1nc2nc(NCc3ccccc3)[nH]n2c(=O)c1CCC(=O)Nc1ccc2ccccc2c1,2%,-6%
Cc1ccc(Cn2ccc(NC(=O)C3=CC(c4ccc(C)cc4)=NS(=O)(=O)N3C)n2)cc1,-21%,-18%
CCCn1c(C)cc(C(=O)CSc2nnc(C(C)Oc3ccccc3F)o2)c1C (stereo not drawn),11%,-1%
Cc1sc2ncn(CCC(=O)NC3CCN(Cc4ccccc4)CC3)c(=O)c2c1C,-6%,-14%
CCCCCCc1cc2cc(-c3nnc(-c4ccc(C)cc4)o3)c(=O)oc2cc1O,10%,-4%
Cc1ccc(C)c(-c2nc(NC(=O)c3cc(C)on3)sc2C)c1,111%[activator],-6%
COc1ccc(S(=O)(=O)c2cnc(SCC(=O)Nc3cc(F)ccc3C)[nH]c2=O)cc1Cl,-11%,-1%
Cc1cc2oc(C(=O)Nc3c(C)n(C)n(-c4ccccc4)c3=O)c(C)c2cc1Cl,-16%,2%
Clc1ccc(CSc2cc(-c3ccccc3)c3ccccc3n2)cc1,?,8%
CCN(CC)CCNC(=O)c1cc2c(=O)[nH]c3ccc(C)cc3c2s1,5%,-11%
COc1ccc(OC)c(CN(C(=O)c2cc(OC)ccc2Br)C2CC2)c1,0%,218%[activator]
N#Cc1ccc(/C=N/Nc2ccccc2Cl)cc1,0%,14%
O=C(O)CN(CCN(CC(=O)O)CC(=O)O)CCN(CC(=O)O)CC(=O)O,11%,0%
CC(C)c1cccc(NC(=O)Cc2c[nH]c3ccccc23)c1,19%,28%
O=C(O)CNS(=O)(=O)c1ccc2c(c1)CCC2,-2%,-12%
COc1cc(C2CC(=O)Nc3c2c(C)nn3-c2nncc(-c3ccc(C)cc3)n2)cc(OC)c1OC (stereo not drawn),0%,-2%
CC(=O)Nc1cccc(Nc2nc3ccccc3n3c(C)nnc23)c1,111%[activator],112%[activator]
Cc1c(CO)[nH]c2ccc(Br)cc12,12%,-22%
O=C(COc1ccc(F)cc1)Nc1nnc(S(=O)(=O)N2CCc3ccccc32)s1,-13%,-26%
Cc1cc(Br)ccc1NC(=O)CSc1nc2cc([N+](=O)[O-])ccc2o1,24%,57%[activator]

# Overlap with the part before: five compounds, followed by the next part.
SMILES,2A firefly,2A Renilla
COc1cc(C2CC(=O)Nc3c2c(C)nn3-c2nncc(-c3ccc(C)cc3)n2)cc(OC)c1OC (stereo not drawn),0%,-2%
CC(=O)Nc1cccc(Nc2nc3ccccc3n3c(C)nnc23)c1,111%[activator],112%[activator]
Cc1c(CO)[nH]c2ccc(Br)cc12,12%,-22%
O=C(COc1ccc(F)cc1)Nc1nnc(S(=O)(=O)N2CCc3ccccc32)s1,-13%,-26%
Cc1cc(Br)ccc1NC(=O)CSc1nc2cc([N+](=O)[O-])ccc2o1,24%,57%[activator]
N#Cc1nc(-c2ccc(S(=O)(=O)N3CCc4ccccc4C3)cc2)oc1NCCCn1ccnc1,10%,205%[activator]
CC(C(=O)N(C)CC(=O)Nc1ccccc1C(F)(F)F)N1CCCC(C(F)(F)F)C1 (stereo not drawn),-8%,-4%
CCS(=O)(=O)N1CC(=O)N(c2cccc(Cl)c2C)C(C)(C(=O)NC2CCCCC2)C1 (stereo not drawn),-15%,-10%
O=C(Cn1ncc(=O)c2ccccc21)N1CCCC1c1ccc2c(c1)OCCCO2 (stereo not drawn),-4%,-15%
Cc1ccc(C)c2sc(N3CCN(C(=O)C(C)(C)C)CC3)nc12,5%,-8%
CCOC(=O)c1c(C)oc2nc(C)nc(Nc3cc(C)cc(C)c3)c12,-13%,-4%
Cc1cccc(Cn2c(COc3ccccc3)nc3ccccc32)c1,58%[activator],6%
CN(C(=O)CNc1cc(F)ccc1F)C1CCS(=O)(=O)C1 (stereo not drawn),9%,-3%
Cc1ccc(NS(=O)(=O)c2ccc(-c3cnc(C)o3)cc2)c(C)c1,-14%,0%
CC(C)CN(C(=O)COc1ccc2ccc(=O)oc2c1)C1CCS(=O)(=O)C1 (stereo not drawn),3%,-2%
N#Cc1ncn(Cc2nc(-c3ccc(F)cc3)no2)n1,-2%,-27%
CCOC(=O)c1c(S(=O)(=O)N2CCCC(C(=O)NCc3cccc(C)c3)C2)c(C)n(C)c1C (stereo not drawn),-15%,-7%
CC(C)C(=O)Nc1nc2ccc(CCC(=O)NCc3ccccc3F)cc2s1,171%[activator],65%[activator]
Cn1c(CN2CCOCC2)nnc1SCc1c(F)cccc1Cl,-5%,-7%
CN1C(=O)C2(CC(=O)Nc3c2cnn3Cc2ccccc2Cl)c2cccc(Cl)c21 (stereo not drawn),-27%,-2%
CC1=CC(C)=Nc2ccc(C)cc2N1,16%,2%
N#Cc1ccc(CNc2ccccc2I)cc1,48%[activator],29%
CCC(C)c1ccccc1NC(=O)Cn1cnc2c1c(=O)n(C)c(=O)n2C (stereo not drawn),7%,-3%
O=C(O)CCOc1ccc(Cl)cc1,-11%,-7%
CCCC(CCC)C(=O)Nc1cccc(-c2nc3cccnc3s2)c1C,-5%,99%[activator]
Cc1cc(C)cc(NC(=O)CSc2nnc(-c3cc4occc4n3C)n2-c2ccccc2C)c1,20%,6%
CCn1nc(C(=O)Nc2nc3c(s2)CC(C)CC3)c2ccccc2c1=O (stereo not drawn),3%,-3%
N#C/C(=C\c1c(Oc2ccc(Br)cc2)nc2ccccn2c1=O)c1nc2ccccc2s1,6%,-16%
CCOC(=O)CCOC(=O)c1ccc(COc2ccc3ccccc3c2)o1,?,-12%
COc1ccc(C2C=C(c3ccc(F)cc3)Nc3nnnn32)cc1OCc1ccccc1 (stereo not drawn),18%,8%
SMILES,2A firefly,2A Renilla
O=C(O)CCCCCCCCCCCC(=O)O,0%,1%
CCOC(=O)c1ccccc1NC1(c2ccc(OC)cc2)C(=O)c2ccccc2C1=O,-19%,-7%
CN1CCN(C(=O)C(=O)Nc2c3c(nn2-c2ccc(F)cc2)CSC3)CC1,-6%,-7%
CCN(CC)CCCNC(=O)C(=O)Nc1ccc2nc3n(c(=O)c2c1)CCCCC3,-5%,0%
CC(C)c1nnc(NC(=O)c2cc(Cl)c3c(c2)OCCO3)s1,54%[activator],7%
COc1ccc(CCNC(=O)c2ccc3c(c2)N(Cc2ccc(Cl)cc2)C(=O)c2ccccc2S3)cc1OC,-19%,-14%
CCCn1c(=O)[nH]c(=O)c2c3c(cnc21)C(=O)CC(c1ccccc1)C3 (stereo not drawn),3%,-4%
Cn1c(=O)c2c(nc(NCC3CCCO3)n2Cc2cccc3ccccc23)n(C)c1=O (stereo not drawn),2%,-4%
COc1cc2c(cc1OC)n(CC(=O)c1ccc(C)cc1C)c(=O)n1nc(CCn3nc(C)cc3C)nc21,-21%,-11%
CCOc1ccc(C(=O)Nc2ccc3oc(-c4cccc5ccccc45)nc3c2)cc1,-7%,-8%
CCOc1ccccc1Oc1coc2cc(OS(C)(=O)=O)ccc2c1=O,30%,?
CC(C)(C)NC(=O)CSc1cc(C(=O)NC2CC2)c2ccccc2n1,-8%,-8%

# 4 compounds picked at random from those above, as already listed:
SMILES,2A firefly,2A Renilla
Cn1c(=O)c2c(nc(NCC3CCCO3)n2Cc2cccc3ccccc23)n(C)c1=O (stereo not drawn),2%,-4%
CC(C)(C)NC(=O)CSc1cc(C(=O)NC2CC2)c2ccccc2n1,-8%,-8%
O=C(O)CCCCCCCCCCCC(=O)O,0%,1%
CCOc1ccc(C(=O)Nc2ccc3oc(-c4cccc5ccccc45)nc3c2)cc1,-7%,-8%

# In another format: 2 of the compounds above.
Structure: CC(C)c1nnc(NC(=O)c2cc(Cl)c3c(c2)OCCO3)s1
  2A firefly = 54%[activator]	2A Renilla = 7%
Structure: COc1ccc(CCNC(=O)c2ccc3c(c2)N(Cc2ccc(Cl)cc2)C(=O)c2ccccc2S3)cc1OC
  2A firefly = -19%	2A Renilla = -14%
